# Screening results (PubChem)
# HPGD inh = HPGD (human) dehydrogenase inhibition; P15428; purified HPGD, NADH fluorescence kinetic, PGE2 substrate; Potency, µM, for the others: top-dose activity change, negative = inhibition, most hits filed as inhibitors; 150,000 tested, 4.3% active; active = well fitted inhibition curve with a large enough effect (not every such curve was filed as active); inconclusive = small, poorly fitted or top-dose-only effect, or another doubt; inactive = no such curve, though single readings can be large or run the other way;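 further: top concentration of the series not given in the record; plate controls included wells without enzyme; inactives centre near -10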
# Target sequence (P15428 whole entry, looked up): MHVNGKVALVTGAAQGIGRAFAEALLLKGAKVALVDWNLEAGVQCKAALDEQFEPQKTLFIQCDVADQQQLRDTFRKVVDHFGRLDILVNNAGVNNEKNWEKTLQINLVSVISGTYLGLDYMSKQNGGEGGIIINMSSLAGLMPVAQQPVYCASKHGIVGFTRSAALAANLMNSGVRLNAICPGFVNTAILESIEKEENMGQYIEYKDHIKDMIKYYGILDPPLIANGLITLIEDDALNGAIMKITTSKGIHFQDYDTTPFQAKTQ
#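 20 nM HPGD preincubated 15 min at room temperature with compound in 50 mM Tris-HCl pH 8, 0.01% Tween 20. Started with 1 mM NAD+ and 30 uM prostaglandin E2; NADH fluorescence (360/450 nm) read 5 times over 30-s intervals, last minus first.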
# Starred values were filed as active, the others as inactive; ? = inconclusive; & = joins results of further samples. On the % scale 0 is the no-effect control and ±100 the full control effect; potency means the concentration at half of the fitted maximal effect.
Structure,HPGD inh
Cc1ccccc1-c1cncnc1NCCc1cnc[nH]1,-3.2%
C=CCN1C(=O)NC(=O)/C(=C/c2ccc(OC)c(CSc3ccccn3)c2)C1=O,28.2µM*
CCC1(CC)C(=O)NC(=Nc2cccc(C(F)(F)F)c2)NC1=O,-8.2%
CC(C)CNC(=O)c1c(N)n(Cc2ccco2)c2nc3ccccc3nc12,10.2%
O=C(O)C(Br)CBr (stereo not given),-9.4%
O=[N+]([O-])c1ccccc1O,-0.5%
CN1CCCC(C(=O)c2ccccc2)C1 (stereo not given),-7.8%
CCCCOC(=O)C1=C(N)OC2=C(C(=O)CCC2)[C@]12C(=O)Nc1ccccc12,-10.6%
Nc1ccc(C(=O)N/N=C2/CN3CCC2CC3)cc1,2.5%
CCN(CC)CCN=Cc1c(O)n(Cc2ccccc2)c(=O)[nH]c1=O,35.5µM*
O=C(Nc1ccc(Cl)cc1)Nc1nccs1,-11.8%
CCOc1cccc(N2C(=O)CC(=O)NC2=O)c1,2.5%
COc1ccc(C2SCC(=O)Nc3c2c(=O)[nH]n3C2CCCCCC2)cc1OC (stereo not given),-11.2%
C=CC(=O)NCNC(=O)C=C,-7.5%
O=C(N/N=C/c1c(O)n(Cc2ccccc2)c(=O)[nH]c1=O)c1ccccc1,?
CC(C)CC(C)Nc1ccc(Nc2ccccc2)cc1 (stereo not given),-6.5%
CC1CCC2C(C)C(=O)OC3OC4(C)CCC1C32OO4 (stereo not given),?
C=CCN1CC[C@]23c4c5ccc(O)c4O[C@H]2/C(=N/NC(=O)c2ccccc2)CC[C@@]3(O)[C@H]1C5,-5.6%&-9.1%
Clc1ccc(CS[C@@H](Cn2ccnc2)c2ccc(Cl)cc2Cl)cc1,-8.4%
Cc1nc2cnc(N3CCNCC3)nc2n(C)c1=O,?
COc1ccc(CN2CCN(Cc3ccccc3)CC2)c(OC)c1,-12.0%
CC(=NCc1cccnc1)c1c(O)n(C2CCCCC2)c(=O)[nH]c1=O,-15.8%
CCCCCCCCCc1ccc(O)cc1,-4.7%&-25.6%
CN(C(=O)CNC(=O)OCc1ccccc1)c1ccc(Br)cc1C(=O)c1ccccc1Cl,-0.5%
CCOC(=O)c1ccc(N2C(=O)CC(N3CCC(O)(c4ccc(Br)cc4)CC3)C2=O)cc1 (stereo not given),?
C=CCn1c(O)c(C(C)=Nc2cc(OC)ccc2OC)c(=O)[nH]c1=O,-10.2%
C=C(C)C1Cc2c(ccc3c(=O)c4c(oc23)COc2cc(OC)c(OC)cc2-4)O1 (stereo not given),-8.9%&-12.3%
CN1[C@@H]2CC[C@H]1CC(O)C2 (stereo not given in full),-7.8%
CN1CCc2cc3c(cc2C1C1OC(=O)c2c1ccc1c2OCO1)OCO3 (stereo not given),-1.9%
COP(=O)(OC)O/C(=C\Cl)c1cc(Cl)c(Cl)cc1Cl,-8.7%
Cn1cccc1CN1CCN(C(=O)COc2ccccc2)CC1,-0.5%
COC(=O)C1=C(N)Oc2c(c(=O)oc3ccccc23)[C@]12C(=O)N(C)c1ccccc12,-10.7%
CCN(CC)P(=O)(NC(=O)C(Cl)(Cl)Cl)N(CC)CC.[Cl-].[Cl-].[Cl-].[Nd+3],2.0%
CC1(C)C(=O)C=C[C@@]2(C)C1CC(O)[C@]1(C)C2CC[C@@]2(C)C(c3ccoc3)OC(=O)C3O[C@]312 (stereo not given in full),-7.2%
Cc1onc(-c2ccccc2)c1C(=O)N1CCC2(CC1)OCCO2,2.9%
CCOC(=O)C1C(=O)N(C)C2(C)CC1c1ccccc1O2 (stereo not given),2.2%
ClCc1ccccc1,-5.5%
CCC[C@@H]1CC2=CC(=O)CC[C@]2(C)[C@@H]2CC[C@@]3(C)[C@H](CC[C@]3(O)CCC(=O)O)[C@H]12,10.8%
C/C(=C\c1ccc(N(C)C)cc1)[N+](=O)[O-],-27.4%
CC(C)C(=O)c1cn(Cc2ccc(C#N)cc2)c2ccccc12,-11.2%
Cc1c(C(=O)N2CCC3(CC2)OCCO3)sc2ncnc(N(C)c3ccccc3)c12,-15.2%
C=CCN1C(=O)c2ccccc2Sc2ccc(C(=O)N3CCC4(CC3)OCCO4)cc21,-3.1%
CCCN(CCC)C(=O)Cc1c(-c2ccc(Cl)cc2)nc2c(Cl)cc(Cl)cn12,-18.8%
CN1[C@@H]2CC[C@H]1CC(OC(=O)C1C=Nc3ccccc31)C2 (stereo not given in full),-6.1%
O=P(O)(O)Cc1ccccc1OP(=O)(c1ccccc1)c1ccccc1,0.7%
CN1C2C=C(N(C(=O)c3ccc(Cl)cc3)c3ccccc3)CC1CC2 (stereo not given),0.3%
CCSc1cc(C2C(C#N)=C(N)Oc3n[nH]c(C)c32)c(C)o1 (stereo not given),-11.0%
COc1ccc(CN2CCCCC2c2cccnc2)cc1C (stereo not given),-12.1%
CCNc1nc(Cl)nc(NC(C)C)n1,-8.8%&-15.0%&-5.0%
Cc1nnc2n1-c1ccc(Br)cc1C(c1ccccc1Cl)=NC2,-17.1%

# Additional compounds
Structure,HPGD inh
BrCC(Br)C1CCC(Br)C(Br)C1 (stereo not given),-4.5%
Cc1ccccc1-c1ccc(C(=O)O)s1,?
CCC(=O)N1CCN(CCN=Cc2c(O)n(C)c(=O)n(C)c2=O)CC1,-7.2%
CCOP(=O)(OCC)C(NC(=O)c1ccccc1Cl)=C(Cl)Cl,-11.6%
c1ccc(-c2[nH]c[n+](CC3CO3)c2-c2ccccc2)cc1 (stereo not given),-18.3%
O=C(O)CCCOc1ccc(Cl)cc1Cl,-15.4%
COc1ccc(OC)c(N2C(=O)NC(=O)C(CCc3ccncc3)(CCc3ccncc3)C2=O)c1,-8.1%
O=NN(c1ccccc1)c1ccccc1,-5.8%
CC[C@]1(O)CC(O[C@@H]2CC(N(C)C)C(O)C(C)O2)c2c(cc3c(c2O)C(=O)c2c(O)cccc2C3=O)C1C(=O)OC (stereo not given in full),2.0%
O=C(O)CCn1cc(C=C2C(=O)NC(=O)NC2=O)c(-c2ccc(Br)cc2)n1,28.2µM*
Cc1cc(OC(=O)c2cccs2)c2c3c(c(=O)oc2c1)CCCC3,-6.2%
COc1ccc(CCC(C)NCCc2ccccc2)cc1 (stereo not given),-10.9%
CC(C)N1C(=O)NC(=O)C2(Cc3cc([N+](=O)[O-])ccc3N(C)C2c2ccccc2)C1=O (stereo not given),-7.0%
CCCc1[nH]nc2c1C1(C(=O)N(CC(N)=O)c3ccccc31)C(C(=O)OC)=C(N)O2 (stereo not given),-0.1%
CC(C)CCOC(=O)c1c(N)n(CC2CCCO2)c2nc3ccccc3nc12 (stereo not given),?
O=C(O)c1nn(Cc2ccc(Cl)c(Cl)c2)c2ccccc12,-12.2%
COc1ccc(CCC(=O)N2CCC3(CC2)OCCO3)cc1,-3.6%
CCC(=NCc1ccc(F)cc1)c1c(O)n(C)c(=O)n(C)c1=O,-6.8%
C=C(C)c1cc2cc(C(C)=O)c(O)cc2o1,-21.0%&-19.8%
O=C(/C=C/c1ccc2c(c1)OCO2)c1c(O)n(CCC2=CCCCC2)c(=O)[nH]c1=O,-19.2%
CC[C@]1(C2=NCCN2)Cc2ccccc2O1,-9.1%
CCCN1CCC[C@@H]2Cc3nc(N)ncc3C[C@H]21,-14.5%
COc1cc2c(cc1OC)[C@@]13CCN4CC5=CCO[C@H](CC(=O)O)[C@@H]([C@H]1N2)[C@H]5C[C@H]43,-10.8%
CCOC(=O)c1ccccc1C(=O)OCC,-12.1%&-8.2%
CCC(=NCCO)c1c(O)n(-c2ccccc2)c(=O)[nH]c1=O,-2.7%
O=C(O)c1c[nH]c2ccc(S(=O)(=O)N(CCCl)CCCl)cc12,-13.1%
N#C/C(=C\c1ccc(O)cc1)C(=O)O,?
Cc1ccc(-c2nc3ccccc3c(=O)n2-c2nccs2)cc1,?
c1ccc(N2CC[C@@]3(CCCNC3)C2)cc1,-5.9%
COc1cccc(NP(=O)(Oc2ccc(Cl)cc2)Oc2ccc(Cl)cc2)c1,-10.0%
O=C1CN=C(c2cccs2)c2c(sc3c2CCCC3)N1,?
CCc1ccc(C(=O)NN(C(=O)c2cc(C)cc(C)c2)C(C)(C)C)cc1,-6.7%
COC(=O)C1=CO[C@@H](C)[C@@H]2CN3CC[C@]4(C(=O)Nc5c4ccc(OC)c5OC)[C@H]3C[C@H]12,-9.7%
Cc1ncsc1CCCl,-7.6%
CC1OC(OC2C(O)CC(OC3C(O)CC(OC4CCC5(C)C(CCC6C5CCC5(C)C(C7=CC(=O)OC7)CCC65O)C4)OC3C)OC2C)CC(O)C1O (stereo not given),-4.9%
CC(Cc1ccc(O)cc1)NCC(O)c1cc(O)cc(O)c1 (stereo not given),-1.5%&-1.8%
COc1c2c(cc3c1OCO3)CC[N+](C)=C2,-6.9%&-9.9%
c1cncc(CNc2cc(-c3ccc4c(c3)OCO4)ncn2)c1,?
ClC(Cl)c1ccccc1,-1.3%
Cc1ncc(CNC(=O)N(CCCl)N=O)c(N)n1,-10.4%&-10.5%
O=C(NC(=O)c1c(F)cccc1F)Nc1ccc(Cl)cc1,-10.6%
Cc1nn(Cc2ccccc2Cl)c(C)c1C(=O)OCC(=O)NC1CCS(=O)(=O)C1 (stereo not given),-5.1%
O=C(O)c1ccccc1-c1c2cc(Br)c(=O)cc-2oc2[c]([Hg])c(O)c(Br)cc12,2.24µM*
O=C(O)Cc1cnc[nH]1,5.0%
CCCCC(C)C(OC(=O)CC(CC(=O)O)C(=O)O)C(CC(C)CC(O)CCCCC(O)CC(O)C(C)N)OC(=O)CC(CC(=O)O)C(=O)O (stereo not given),-7.3%
C1CNC2NCCNC2N1 (stereo not given),-6.3%
O=C(CNC1CCCCC1)N1CCC2(CC1)OCCO2,-11.8%
O=P(C(Cl)Cl)(N1CCCCC1)N1CCCCC1,-7.4%
Cc1ccc(-n2c(C)cc(/C=C3/C(=O)NC(=O)N(C)C3=O)c2C)cc1,-1.9%
CCC#N,-16.6%

# (cont.)
Structure,HPGD inh
CCCCN1C(=O)NC(=O)/C(=C/c2cnc(SC)nc2)C1=O,20µM*
O=C(COc1ccccc1)c1cn(Cc2ccccc2)c2ccccc12,-6.9%
CNC1(c2ccccc2Cl)CCCCC1=O (stereo not given),-7.3%
O=C1C2(Cl)C3(Cl)C4(Cl)C(Cl)(Cl)C5(Cl)C3(Cl)C1(Cl)C5(Cl)C24Cl (stereo not given),-8.6%&-16.3%
CN1CCc2cc(Cl)c(O)cc2[C@H]2c3ccccc3CC[C@@H]21,-1.3%
O=c1[nH]c(=O)n(-c2ccc(Cl)cc2)c(O)c1C=Nc1ccc(S(=O)(=O)Nc2nccs2)cc1,22.4µM*
O=C(COc1ccccc1)N1CCN(CC(O)COc2ccccc2)CC1 (stereo not given),-3.1%
CCN1CCN(S(=O)(=O)c2cnc(Cl)c(Br)c2)CC1,5.7%
CCOc1cc(C2C(C#N)=C(N)Oc3c2c(=O)oc2ccccc32)ccc1OC(=O)c1cccs1 (stereo not given),-14.3%
O=P(N[C@@H](c1ccccc1)[C@@H]1C[C@H]1CO)(c1ccccc1)c1ccccc1,0.0%&-0.9%
O=C1C2CCCN2C(c2ccc(Cl)cc2)N1c1ccccn1 (stereo not given),-13.4%
CN1CCc2cc3c(cc2[C@@H]1[C@@H]1OC(=O)c2c1ccc1c2OCO1)OCO3,-0.6%
COc1ccc(OC)c2c1CCC1NCCOC21 (stereo not given),-1.8%
C/C(=N\N1CCCCCC1)c1c(O)n(-c2ccccc2)c(=O)[nH]c1=O,-0.3%
CCC/C=N/O,0.0%
c1csc(CN2CC[C@@]3(CCCNC3)C2)n1,-13.0%
O=C1NC(=O)C(=Cc2ccc(OCC(=O)N3CCOCC3)cc2)C(=O)N1,-20.2%
CCCC/C(C)=C/[C@@H](NP(=O)(c1ccccc1)c1ccccc1)c1ccccc1,?
Cc1ccc2c(c1)N(CCC(=O)N1CCC3(CC1)OCCO3)C(=O)C(C)O2 (stereo not given),-10.5%
CCC(=NCCO)c1c(O)n(C2CCCCC2)c(=O)[nH]c1=O,-2.7%
O=C(Nc1cccc(Cl)c1)c1c(O)c2c(n(Cc3ccccc3)c1=O)CCCC2,-25.1%
O=c1[nH]c(=O)n(-c2cccc3ccccc23)c(O)c1C=NCCCn1ccnc1,-0.9%
C[N+](C)(C)CC#CCOC(=O)Nc1cccc(Cl)c1,-12.1%
NCC(CC(=O)O)c1ccc(Cl)cc1 (stereo not given),-8.1%&-11.5%&3.5%&-11.8%
CC(C)=C[C@H]1[C@@H](C(=O)OCc2cc3c(cc2Cl)OCO3)C1(C)C,-7.1%
CCN(CC)CCCNC(=O)c1c(O)c2ccccc2n(Cc2ccccc2)c1=O,-6.6%
CCC1(CC)C(=O)NC(=O)NC1=O,-6.0%
CCCCC#N,-5.4%
CCN(CC)S(=O)(=O)c1ccc(NN=C(C#N)C#N)cc1,14.1µM*
O=C(CNC(=O)c1ccccc1Cl)Nc1ccc(Br)cc1C(=O)c1ccccc1,28.2µM*
COC(=O)N1CCN(C(=O)Cc2ccc(Cl)c(Cl)c2)C(CN2CCCC2)C1 (stereo not given),-9.3%

# Molecules shown so far containing two or more sulfur atoms:
Structure,HPGD inh
O=C1CN=C(c2cccs2)c2c(sc3c2CCCC3)N1,?
O=c1[nH]c(=O)n(-c2ccc(Cl)cc2)c(O)c1C=Nc1ccc(S(=O)(=O)Nc2nccs2)cc1,22.4µM*

# The list is partial; rates above refer to the full screens.
